Measles inh: inhibitors of measles virus growth in infected cells; infected Vero cells, GFP fluorescence, 64 h; hits give low values; z-score (concentration not given with the values); 33,000 compounds, 0.1% hits; AID 745;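 active means z-score under -3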;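 further: score is relative to mean and SD of the compound wells of a plate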
Numbers without * were called inactive.

item	SMILES	Measles inh
1	CC1=C(C(=O)OCc2ccccc2)C(c2cccc(Cl)c2)C2=C(CCCC2=O)N1 (configuration not stated)	-0.58
2	CCOC(=O)c1c(NC(=O)c2cnn3c2NC(c2ccc4c(c2)OCO4)CC3C(F)(F)F)sc2c1CCC2 (configuration not stated)	0.57
3	O=c1oc2ccccc2cc1-c1csc(-c2ccc(Cl)cc2)n1	-0.48
4	Cc1cc(N2CCC(C)CC2)nc2ccc(NC(=O)CCC(=O)NC3CCCC(C)C3C)cc12 (configuration not stated)	5.3
5	COc1ccccc1CC(=O)Nc1c[nH]c(=O)[nH]c1=O	-0.28
6	C=CCn1c(-c2ccc3[nH]c(C)c(C)c3c2)n[nH]c1=S	0.52
7	Cc1ccc2oc(-c3ccc(NC(=O)c4ccccc4C)c(C)c3)nc2c1	1.4
8	Cc1ccc(-n2c(=O)c3c4c(sc3n(CC(=O)NC3CCCCC3)c2=O)CCC4)cc1C	-0.05
9	CNS(=O)(=O)c1cc(-c2nnc(OC)c3ccccc23)ccc1C	0.21
10	CCCOC(=O)C1=C(C)NC2=C(C(=O)CC(c3ccccc3OC)C2)C1c1cccs1 (configuration not stated)	-0.37
11	N#Cc1nc(-c2ccccc2)oc1NCC1CCCO1 (configuration not stated)	-0.71
12	COc1cccc(C(=O)CN2CCN(CC(=O)Nc3ccccc3F)CC2)c1	1.1
13	C=CCN1C(=O)C2C(c3ccccc3)C=CC(c3ccccc3)C2C1=O (configuration not stated)	-1.3
14	NS(=O)(=O)c1ccc(NC(=O)c2cc(Cl)ccc2[N+](=O)[O-])cc1	0.21
15	O=C1OCCN1S(=O)(=O)c1ccc(Cl)cc1	-0.69
16	CCCc1nnc2n1N=C(c1ccc(OC)cc1)CS2	0.45
17	CCN1C(=O)CC(C(=O)Nc2ccc(Cl)cc2)SC1=Nc1ccc(F)cc1 (configuration not stated)	-0.53
18	CCCCc1ccc(NC(=O)CSc2nccn2-c2ccc(F)cc2)cc1	0.78
19	COc1ccc(CN(CCC(c2ccc(C)cc2)c2ccco2)C(C)=O)cc1 (configuration not stated)	1
20	COc1ccc(NC(=O)Cn2c(=O)n(-c3cc(OC)cc(OC)c3)c(=O)c3sccc32)cc1	-0.09
21	Cc1ccc(CNC(=O)c2cc(=O)[nH]c3ccc(S(=O)(=O)N4CCCC(C)C4)cc23)cc1 (configuration not stated)	0.03
22	CN(C1=NS(=O)(=O)c2ccccc21)c1ccccc1C(=O)O	1.1
23	COC1=CCC2([N+](=O)[O-])CN(Cc3ccccc3)CC1([N+](=O)[O-])C2 (configuration not stated)	-0.47
24	O=C(CCS(=O)(=O)c1cc(Br)cc2c1N(C(=O)C1CC1)CC2)NCc1ccc2c(c1)OCO2	0.99
25	CCN1CCN(C(=O)C2CNc3cc(C)ccc3O2)CC1 (configuration not stated)	-0.39
26	CCCOc1ccc(C(=O)Nc2cc(-c3nc4ncccc4o3)ccc2C)cc1	-1.6
27	Cc1cc(NC(=O)CSc2nnc3sc4ccccc4n23)no1	-0.09
28	COc1cccc(C(=O)Nc2c(C)ccc3nsnc23)c1	-0.65
29	O=C1c2cccc(Oc3ccc(Cl)cc3)c2C(=O)N1CC1CCCO1 (configuration not stated)	1
30	Cc1ccc(C(=O)NCCOc2ccccc2)cc1	-0.68
31	Cc1ccn2c(Nc3ccccc3)c(-c3c[nH]c4ccccc34)nc2c1	0.92
32	CC(O)c1c(O)ccc2ccc(=O)oc12 (configuration not stated)	-0.51
33	Cc1ccc(NC(=O)N(Cc2ccco2)C(C)c2ccco2)cc1C (configuration not stated)	-0.08
34	CCN1CCN(C(=O)c2ccc(N3CC4CC(C3)c3cccc(=O)n3C4)c([N+](=O)[O-])c2)CC1 (configuration not stated)	-0.94
35	COc1ccccc1N1CN(Cc2ccco2)CNC1=S	0.09
36	Cc1nc2ccc3nc(NC(=O)c4ccc(C#N)cc4)sc3c2s1	0.2
37	Cc1c(NC(=O)c2cc([N+](=O)[O-])ccc2Cl)c(=O)n(-c2ccccc2)n1C	0.05
38	O=C(Nc1ccc(O)c(-c2nc3ccccc3s2)c1)c1cccc2ccccc12	-0.31
39	COc1cccc(C2=CC(c3ccco3)n3ncnc3N2)c1 (configuration not stated)	1.8
40	CCOC(=O)c1cnc2c(OC)cccc2c1NCc1ccc(F)cc1	-0.24

An excerpt of these results, as labelled records:
(38) O=C(Nc1ccc(O)c(-c2nc3ccccc3s2)c1)c1cccc2ccccc12
  Measles inh = -0.31

(39) COc1cccc(C2=CC(c3ccco3)n3ncnc3N2)c1 (configuration not stated)
  Measles inh = 1.8

(list continues)
item	SMILES	Measles inh
41	CCN1C(=O)c2cccc3c(NC(=O)c4ccc(OC)cc4OC)ccc1c23	0.67
42	NS(=O)(=O)c1ccc(CCNC(=O)C2CCCN(S(=O)(=O)c3cccc4nsnc34)C2)cc1 (configuration not stated)	-0.81
43	CCOC(=O)c1sc2nc(-c3ccc(OC)cc3)cc(C(F)(F)F)c2c1N	0.82
44	CCOC(=O)C1=C(C)NC2=C(C(=O)CC(C)(C)C2)C1c1cccc(Oc2ccccc2)c1 (configuration not stated)	-0.31
45	O=C(NCc1ccccn1)c1cncc(Br)c1	-0.16
46	CCOc1ccc(N2C(=O)C3ON(C)C(c4ccc([N+](=O)[O-])cc4)C3C2=O)cc1 (configuration not stated)	-0.18
47	COC(=O)C1C2C=CC3(CN(c4ccccc4Br)C(=O)C13)O2 (configuration not stated)	3
48	CCOC(=O)c1ccc(N2C(=O)CC(NCc3ccccc3)C2=O)cc1 (configuration not stated)	0.06
49	CCC(C)NS(=O)(=O)c1ccc(F)c(C(=O)Nc2ccc(C)c(C)c2)c1 (configuration not stated)	-1.5
50	O=C(Nc1ccc(-c2nc3ccccc3[nH]2)cc1)c1ccccc1Br	-1.1
51	COc1cccc(CNC(=O)CCn2c(=S)[nH]c3cc4c(cc3c2=O)OCO4)c1	-0.91
52	COc1ccc(C2Nc3ccc4ccccc4c3C3=C2C(=O)CC(C)(C)C3)cc1 (configuration not stated)	-0.56
53	CC1CCCN(CCCNS(=O)(=O)c2ccc3c(c2)CCN3C(=O)C2CCC2)C1 (configuration not stated)	-2
54	COc1ccc(CNS(=O)(=O)c2ccc(F)c(C(=O)Nc3ccc(OC)cc3)c2)cc1	-1.3
55	CCn1c2ccccc2c2nnc(SCC(=O)N3CCCc4ccccc43)nc21	-0.27
56	COc1ccc(C2Nc3ccc(F)cc3C3C=CCC32)cc1[N+](=O)[O-] (configuration not stated)	-0.73
57	O=[N+]([O-])c1cc2c(cc1C=Nc1ccc(O)c(-c3nc4ccccc4o3)c1)OCO2	-0.99
58	CCOc1ccc(S(=O)(=O)Nc2ccc(CC(=O)O)cc2)cc1	-1.2
59	O=C(C1c2ccccc2C(=O)N2CCc3ccccc3C12)N1CCN(c2ccccc2F)CC1 (configuration not stated)	-0.6
60	COc1ccc(Cn2c(=O)[nH]c3cc(C(=O)NC4CCC(C)CC4)ccc3c2=O)cc1 (configuration not stated)	-1.3
61	O=C(CCn1c(=S)[nH]c2ccccc2c1=O)NCc1ccccc1	1.9
62	CCOC(=O)C1=C(C)NC(=S)NC1c1cn(-c2ccccc2)nc1-c1ccccc1 (configuration not stated)	-1
63	CC(=O)Nc1ccc(N2C(=O)CSC2c2ccc(Br)cc2)cc1 (configuration not stated)	-0.14
64	CCOc1ccc(C2=NC(c3ccccc3OC)NC(c3cc(Cl)ccc3O)C2)cc1 (configuration not stated)	3.2
65	COc1cc(C2C(C(=O)OC3CCCCC3)=C(C)NC3=C2C(=O)CC(C)(C)C3)cc(OC)c1OC (configuration not stated)	-1.1
66	COc1cccc(CN2C(=O)CN(C3CCC(C)CC3)C(=O)C2c2ccc(OC)c(OC)c2)c1 (configuration not stated)	1.5
67	Cc1[nH]c2ccccc2c1C(c1cccs1)N1CCCC1 (configuration not stated)	-0.29
68	O=C1C2C(C(=O)N1c1cc(Cl)ccn1)C1C=CC2C12CC2 (configuration not stated)	0.66
69	COc1nc(-c2ccccc2O)nc2ccccc12	-0.63
70	CCOc1ccc(NC(=O)c2c(NC(=O)c3ccccc3F)sc3c2CCCC3)cc1	-0.01
71	COc1ccc(C2C(C(=O)Nc3ccc(OC)c(Cl)c3)c3ccccc3C(=O)N2C)cc1 (configuration not stated)	0.47
72	COc1cc(COc2ccc3c4c(c(=O)oc3c2C)CCC4)cc(OC)c1OC	0.58
73	CC1CCCC(C)N1CCNC(=O)C1CC(=O)N(C2CCCCCC2)C1 (configuration not stated)	-0.54
74	O=C(NCc1ccccc1)C1c2ccccc2Oc2ccccc21	0.16
75	O=C(NCc1ccc2c(c1)OCO2)c1coc2nc3ccccc3nc12	3.8
76	COc1ccc(-n2c(CCC(=O)O)ccc2-c2cccs2)cc1	1.6
77	Cc1c(C(c2cccc(I)c2)c2c(C)n(C)n(-c3ccccc3)c2=O)c(=O)n(-c2ccccc2)n1C	-0.01
78	Cc1cc(C(F)(F)F)nc(N2CCc3ccccc3C2)n1	-1.1
79	Brc1cccc(C2CC(c3ccc(I)cc3)Nc3nnnn32)c1 (configuration not stated)	-0.35
80	CC1(C)OC(=O)N(c2ccccn2)C1(C)O (configuration not stated)	-0.59
81	COc1ccc(-c2coc3cc4oc(=O)c5ccccc5c4cc23)cc1	-0.27
82	CC1CC(C)(C)NC(=S)N1CCC(=O)Nc1ccc(OC(F)(F)F)cc1 (configuration not stated)	-0.78
83	Cc1ccc(-c2nn(CC(=O)NCc3ccccn3)c(=O)c3ccccc23)cc1	2
84	CCOC(=O)c1cnc2c(C)c(Cl)ccc2c1N(C)Cc1ccccc1	-0.38
85	C=CCc1cccc2cc(C(=O)Nc3ccc(CC)cc3)c(=O)oc12	0.42
86	CC(C)c1nnc(NC(=O)c2ccc(S(=O)(=O)N(C)C)cc2)s1	0.85
87	COc1ccc(CNC(=O)CSc2nc3ccccc3[nH]2)cc1	1.1
88	COc1ccccc1-c1nnc(SCC(=O)N2CCc3ccccc32)o1	-0.57
89	CC(=O)c1c(OC(=O)c2cccc(Br)c2)c2ccccc2n1C	0.19
90	CN1C(=O)C(=O)/C(=C(/O)c2ccc(F)cc2)C1c1ccc(F)cc1 (configuration not stated)	-0.6
91	CCOC(=O)C1=C(C)Nc2nc(SCc3ccccc3)nn2C1c1ccccc1[N+](=O)[O-] (configuration not stated)	0.76
92	CCC(C(=O)NC1CCCCCCC1)N1C(=O)CSc2ccc(C(C)(C)C)cc21 (configuration not stated)	0.42
93	O=C(Nc1cc(C(F)(F)F)ccc1Cl)c1cc2n(n1)C(C(F)(F)F)CC(c1ccc3c(c1)OCO3)N2 (configuration not stated)	1
94	COc1ccc2nc(Cl)c(C3CC(c4ccc(C)cc4)=NN3C(=O)CCCC(=O)O)cc2c1 (configuration not stated)	-0.22
95	Cc1ccc(C(=O)NCCNC(=O)c2ccncc2)cc1	-0.46
96	O=P(O)(O)CN(CP(=O)(O)O)C1CCCCC1	0.01
97	CCc1ccccc1NC1=NS(=O)(=O)c2ccccc21	-0.51
98	CCOc1ccc(NC(=O)c2cccc(OC)c2)c([N+](=O)[O-])c1	-1
99	O=C(NCc1ccc(F)cc1)c1ccc2c(=O)n(CC3CCCO3)c(=S)[nH]c2c1 (configuration not stated)	1.1
100	COc1ccc2nc(N3CCC(C(=O)N4CCN(c5ccccn5)CC4)CC3)sc2c1	0.2

Going on with the list.
item	SMILES	Measles inh
101	Cc1c(C(=O)O)oc2ccc(S(=O)(=O)NC3CCCCC3C)cc12 (configuration not stated)	2.4
102	O=C(c1cccc([N+](=O)[O-])c1)c1ccc2c(c1)C(=O)N(c1nccs1)C2=O	0.06
103	COc1ccc(CN2C(=O)c3ccccc3C2C(=O)NCCCN2C(C)CCCC2C)cc1 (configuration not stated)	-0.56
104	Cc1ccc2nc(NC(=O)CN3C(=S)NC(C)(C)CC3C)sc2c1 (configuration not stated)	1.6
105	CCOC(=O)c1c(CSC2CCCCC2)oc2ccc(O)cc12	1.3
106	CN(C(=O)c1ccc2c(c1)C(=O)N(CCC1=CCCCC1)C2=O)C1CCCCC1	-0.41
107	COc1ccc(Br)cc1C1CC(=O)c2c(ccc3ccccc23)N1 (configuration not stated)	-1.4
108	CCOc1ccc(-n2nc3ccc(NC(=O)c4ccc(-c5cccc([N+](=O)[O-])c5)o4)cc3n2)cc1	0.24
109	CC1CCCCN1S(=O)(=O)c1ccc2c(c1)CCN2C(=O)C1CC1 (configuration not stated)	0.15
110	Nc1nc2cc([N+](=O)[O-])ccc2s1	3.8
111	O=C(O)c1ccccc1C(=O)Nc1c(-c2ccccc2)nc2ccccn12	0.02
112	Cn1ccccc1=Nc1cccc[n+]1C	1.6
113	CC(=O)c1cccc(NC(=O)c2noc3c2CCC3)c1	-0.54
114	CCCCCCC1CCC(c2ccc(C(N)=O)c(Cl)n2)CC1 (configuration not stated)	0.31
115	N#Cc1ccccc1NC(=O)c1cc2c(=O)n3ccccc3nc2s1	1.4

Quoted from above, nos. 72 to 86
item	SMILES	Measles inh
72	COc1cc(COc2ccc3c4c(c(=O)oc3c2C)CCC4)cc(OC)c1OC	0.58
73	CC1CCCC(C)N1CCNC(=O)C1CC(=O)N(C2CCCCCC2)C1 (configuration not stated)	-0.54
74	O=C(NCc1ccccc1)C1c2ccccc2Oc2ccccc21	0.16
75	O=C(NCc1ccc2c(c1)OCO2)c1coc2nc3ccccc3nc12	3.8
76	COc1ccc(-n2c(CCC(=O)O)ccc2-c2cccs2)cc1	1.6
77	Cc1c(C(c2cccc(I)c2)c2c(C)n(C)n(-c3ccccc3)c2=O)c(=O)n(-c2ccccc2)n1C	-0.01
78	Cc1cc(C(F)(F)F)nc(N2CCc3ccccc3C2)n1	-1.1
79	Brc1cccc(C2CC(c3ccc(I)cc3)Nc3nnnn32)c1 (configuration not stated)	-0.35
80	CC1(C)OC(=O)N(c2ccccn2)C1(C)O (configuration not stated)	-0.59
81	COc1ccc(-c2coc3cc4oc(=O)c5ccccc5c4cc23)cc1	-0.27
82	CC1CC(C)(C)NC(=S)N1CCC(=O)Nc1ccc(OC(F)(F)F)cc1 (configuration not stated)	-0.78
83	Cc1ccc(-c2nn(CC(=O)NCc3ccccn3)c(=O)c3ccccc23)cc1	2
84	CCOC(=O)c1cnc2c(C)c(Cl)ccc2c1N(C)Cc1ccccc1	-0.38
85	C=CCc1cccc2cc(C(=O)Nc3ccc(CC)cc3)c(=O)oc12	0.42
86	CC(C)c1nnc(NC(=O)c2ccc(S(=O)(=O)N(C)C)cc2)s1	0.85

High-throughput results from PubChem BioAssay.

Some of the compounds tested; count on the stated rates, not on these rows.
